# Calb biofilm kill = mixtures killing C. albicans biofilm. C. albicans biofilm persisters + clotrimazole, fluorescence viability; primary screen in compound mixtures of four per well. inhibition, % at 7.6 µM. 120,000 tested, 0.02% active;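 active = inhibition above 30.3% in the primary screen of four-compound pools, then above 30% when the compound was retested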;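 note: compounds exposed to preformed 24 h biofilms for 48 h; the number belongs to the whole pool; some results filed as inactive read as strong as hits; inactives centre near 12; 0% = biofilm with clotrimazole alone and 100% = kill control; retested singly at about 60 µM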
#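 System: C. albicans CAF4-2 wild-type biofilms; Medium: RPMI/MOPS medium, pH 7.0; Reagent: Clotrimazole, 50 µg/mL; Times: biofilm formation 24 h, compound exposure 48 h, 37 °C; Detection: 2-h Alamar Blue fluorescence, 535/590 nm excitation/emission; Evaluation: percent inhibition of biofilm viability.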
# An asterisk follows results filed as active.
cpd	Structure	Calb biofilm kill
1	CN1c2ccccc2-c2nc3ccccc3n2C1c1cccs1 (stereo unspecified)	16
2	O=C(CNS(=O)(=O)c1ccc(F)c(Cl)c1)N1CCCCCC1	13
3	COc1ccc(CCNC(=O)CC(c2ccccc2)c2cccc(C)c2O)cc1OC (stereo unspecified)	17
4	Cc1cccc(NC(=S)N(CCCN2CCOCC2)C(C)c2cc3ccccc3o2)c1 (stereo unspecified)	6
5	O=C(Nc1ccccc1F)c1ccc(COc2ccc(Cl)cc2Cl)o1	19
6	CC(C)[C@H](NC(=O)c1ccccc1Cl)C(=O)OCc1cc([N+](=O)[O-])cc2c1OCOC2	5
7	COc1ccc(CN(C)CC(=O)Nc2ccccc2C(F)(F)F)cc1	19
8	CCn1nc(C)c(/C=N/NC(=O)Cn2nccc2C)c1C	11
9	CSc1nc(N)c(C(=O)NC2CCCCC2)s1	12
10	Nc1sc(-c2ccccc2)n[n+]1Cc1cccc2cccnc12	16
11	CCOC(=O)c1ccc(NCCOC)c([N+](=O)[O-])c1	13
12	CC(C(=O)c1ccccc1)[n+]1cccc(C(N)=O)c1 (stereo unspecified)	20
13	COc1ccc(CCNC(=O)CCCOc2cc(=O)n(C)c3ccccc23)cc1OC	10
14	CCN(CC)S(=O)(=O)c1ccc2c(c1)c(=O)c(C(=O)NCc1ccc3c(c1)OCO3)cn2C	14
15	Cc1cccc(-n2nnnc2SCc2csc(-c3ccccc3)n2)c1	9
16	O=C(COC(=O)C1(c2ccccc2F)CCCC1)N1CCc2ccccc21	11
17	Cc1c(Cl)cccc1Nc1ccccc1C(=O)O	5
18	CN1CCN(/N=C/c2ccc(-c3ccccc3)cc2)CC1	4
19	CCOC(=O)c1ccc[n+](CC(=O)c2ccccc2)c1	0
20	O=C(Nc1ccc(Br)cc1)N1CCCC(O)C1 (stereo unspecified)	18

cpd	Structure	Calb biofilm kill
21	CCOC(=O)c1ccc(CNC(=O)Cn2nnc(-c3ccccc3F)n2)o1	12
22	O=S(=O)(Nc1cccnc1)c1ccccc1	4
23	CCn1c(SCC(=O)Nc2cccnc2Cl)nnc1-c1ccccc1	6
24	CCOC(=O)C1CCN(c2ncnc3c2nnn3Cc2ccccc2Cl)CC1	-5
25	CSc1ccc(/C=N/NC(=O)c2ccc(C)c(C)c2)cc1	13
26	COc1ccc2cc(CN(CC3CCCO3)C(=O)Nc3ccccc3OC)c(=O)[nH]c2c1 (stereo unspecified)	21
27	O=C(CCNC(=O)Cn1ccc2ccccc2c1=O)NCCCN1CCOCC1	13
28	Cc1ccc(S(=O)(=O)N(C)C)cc1NC(=S)N1CCN(Cc2ccc3c(c2)OCO3)CC1	5
29	C/C(=N\NC(=O)c1ccc(Cl)cc1)c1ccc(N2CCOCC2)cc1	6
30	CCOC(=O)N1CCN(C(=O)C(C)N(c2ccccc2)S(C)(=O)=O)CC1 (stereo unspecified)	33
31	Cc1cc(N2CCOCC2)ccc1/C=C\[N+](=O)[O-]	0
32	Cc1nc(CN(C)Cc2nc(Cc3cccc(F)c3)no2)cs1	13
33	O=C1/C(=C/c2ccccn2)SC(=S)N1c1ccc(O)cc1	26
34	CCOc1ccc(CN(C)C(C)C(=O)Nc2ccc([N+](=O)[O-])cc2Cl)cc1OC (stereo unspecified)	8
35	Cc1ccc(NC(=S)NNC(=O)Nc2ccccc2)cc1	14
36	O=C1C(Cc2c[nH]c3ccccc23)NC(=S)N1Cc1ccccc1 (stereo unspecified)	-1
37	COc1ccc(-n2nc([N+](=O)[O-])c(=NCCc3ccc(OC)c(OC)c3)n2O)cc1	-1
38	CCn1cnc2cc(NC(=O)c3cccs3)ccc21	39
39	O=C(NCc1cccnc1)/C(=C\c1ccc(-c2cccc(Cl)c2)o1)S(=O)(=O)c1ccccc1	20
40	CN(C)C(CNC(=O)c1cccc(OC(F)F)c1)c1ccco1 (stereo unspecified)	5

cpd	Structure	Calb biofilm kill
41	Cc1ccc(NC(=O)Cn2cccc2C2=NC(c3ccccc3)CO2)cc1C (stereo unspecified)	-2
42	COc1ccc(S(=O)(=O)N(C(C)=O)c2ccc(OC(C)=O)c3ccccc23)cc1[N+](=O)[O-]	26
43	COc1ccc(C2C(C(=O)NCc3ccco3)c3ccccc3C(=O)N2C)cc1 (stereo unspecified)	21
44	O=C(N/N=C1\CC(c2ccccc2)Oc2ccccc21)c1ccccn1 (stereo unspecified)	-1
45	N#Cc1ccc2c(c1)NC(=O)C1CCCN21 (stereo unspecified)	7
46	CCC(=O)c1ccc(N2CCN(C(=O)c3ccccc3Br)CC2)c(F)c1	5
47	C=CCN(C)CC/C=C1\c2ccccc2CSc2ccccc21	12
48	CN(Cc1nc2c(s1)CCCC2)C(=O)CCc1nnc(-c2ccccc2)o1	5
49	O=C(NCc1ccco1)C1CCN(c2ccc(S(=O)(=O)N3CCOCC3)cc2[N+](=O)[O-])CC1	3
50	N#CCC(=O)Nc1ccc(C(=O)OCC(=O)c2ccc3c(c2)OCCO3)cc1	-11
51	Cn1cccc1C(=O)OCC(=O)NC(=O)NC1CCCCC1	9
52	COc1cc(N/N=C/c2ccccc2O)ncn1	8
53	CC(=O)Nc1cccc(Nc2nc(-c3ccccc3F)nc3ccccc23)c1	20
54	O=C(CSc1nnnn1-c1ccc(Cl)c(C(=O)O)c1)NC(c1ccccc1)c1ccccc1	26
55	CCOC(=O)c1c(NC(=O)CN2CCC(C)CC2)sc(C)c1C	6
56	COc1ccc(OC)c(NC(=O)C(=O)NNC(=O)COc2ccc(Br)cc2C)c1	3
57	COc1ccc(OC)c(C2CC(c3ccc(NS(C)(=O)=O)cc3)=NN2C(=O)c2ccccc2)c1 (stereo unspecified)	17
58	CCc1ccccc1NC(=O)Nc1ccc2c(c1)OCO2	4
59	O=C(Nc1cccc(Cl)c1)c1cc(N=Nc2ccc([N+](=O)[O-])cc2Cl)ccc1O	21
60	COc1ccc(-c2c([C@H]3[C@H]4C=CC[C@@H](C)[C@@H]4C(=O)N3Cc3ccccc3)ccc3ccccc23)cc1	17

cpd	Structure	Calb biofilm kill
61	Cc1cc(C)n2nc(SCC(=O)c3cc(C)n(CC4CCCO4)c3C)nc2n1 (stereo unspecified)	6
62	C/C(Cc1ccccc1)=N\NC(=O)CNC(=O)Cc1ccc(Cl)cc1	17
63	CCc1cc2ccc(OC)cc2nc1SCC(=O)NNC(=O)c1ccco1	5
64	O=C(NNc1cc(Cl)ccc1Cl)c1c(F)cccc1Cl	12
65	COc1ccc(N2CCN(CC(=O)N3N=CCC3c3ccccc3)CC2)cc1 (stereo unspecified)	16
66	CCCCC(=O)NC(c1ccccc1Cl)c1c(O)ccc2ccccc12 (stereo unspecified)	14
67	O=C(O)CC(NC(=O)Cc1ccccc1)c1cc([N+](=O)[O-])ccc1Cl (stereo unspecified)	12
68	CS(=O)(=O)N1CCC(Oc2ccccc2C(=O)N2CCNC(=O)C2)CC1	18
69	CCCCCn1nc(C)c(/C=N/NC(=O)c2ccoc2C)c1C	16
70	Cc1nc2cc(NCc3cccs3)ccc2n1C	21
71	Cc1nn(-c2ccccc2)c(NC(=O)c2cccs2)c(-c2ccc(Cl)cc2)c1=O	20
72	Cc1ccccc1OCc1nc2ccccc2c(=O)n1/N=C/c1cccc([N+](=O)[O-])c1	9
73	NC(=O)C1(c2ccccc2)CCCN1C(=O)c1ccc(Br)cc1 (stereo unspecified)	13
74	Cc1ccc(/C=C2\CCC(C3CCCC3)C2=O)cc1 (stereo unspecified)	8
75	O=C(O)C[C@@H](O)C(=O)O	16
76	O=C(O)C1=C[C@@H](c2ccc(Br)cc2)C[C@@H](OCc2ccc(CO)cc2)O1	16
77	CN(Cc1cccc2ccccc12)C(=O)c1cc(COc2c(F)cccc2F)on1	12
78	O=C(Nc1cccc(F)c1)NC1(C(=O)N2CCOCC2)CCCCC1	6
79	Cc1cc([N+](=O)[O-])nn1CC(=O)N1N=C(C(F)F)CC1(O)C(F)F (stereo unspecified)	16
80	CC(CCCC(C)(C)O)NCc1cn[nH]c1-c1ccc2c(c1)OCO2 (stereo unspecified)	15

cpd	Structure	Calb biofilm kill
81	Cc1ccc2occ(C3NC(C(=O)O)CS3)c(=O)c2c1 (stereo unspecified)	5
82	Cc1cccc(Cl)c1NC(=S)N1CCN(c2ccc([N+](=O)[O-])cn2)CC1	16
83	CCCCC1C(=O)CC[C@H]2[C@@H]1CC(=O)[C@@H]2C/C=C\CCCC(=O)O (stereo partly specified)	8
84	Cc1onc(-c2c(F)cccc2Cl)c1C(=O)NNC(=O)C1CCN(Cc2cccc(F)c2)CC1	-5
85	CCCOc1ccc(C2C(C(=O)/C=C/c3ccco3)=C(O)C(=O)N2CCN2CCOCC2)cc1OC (stereo unspecified)	16
86	CS(=O)(=O)N1N=C(c2cccs2)CC1c1ccccc1 (stereo unspecified)	19
87	Cc1nnc(N/N=C/C(C)c2ccccc2)[nH]c1=O (stereo unspecified)	21
88	Cn1c2ccccc2c(=O)c2c(=O)n(Cc3ccco3)c(COc3ccccc3)nc21	15
89	Cn1c(=O)[nH]c(=O)c2c1nc(N1CCCCCC1)n2CCOc1ccccc1	9
90	COC(=O)C1=C(C)NC(=O)NC1c1ccc(-c2ccc(Cl)cc2)o1 (stereo unspecified)	2
91	O=C1CCCC(O)=C1N=Nc1c(Cl)cc(Cl)cc1Cl	13
92	CC(=O)Nc1ccc(OCCOc2ccc([N+](=O)[O-])cc2)cc1	15
93	CNc1ccc(Oc2nc([N+](=O)[O-])nn2C)cc1	10
94	CC(=O)c1ccc(NC(=O)/C=C/c2ccc(C)cc2)cc1	-3
95	COc1ccc(CCNC(=O)C(=O)NCc2ccccn2)cc1	8
96	CCOC(=O)C1(Cc2ccccc2C(F)(F)F)CCN(CCCn2cccn2)CC1	29
97	COc1ccc(NC(=O)c2ccccc2-c2ccccc2)c(C)c1	18
98	CC1(CC(=O)Nc2ccccc2)NC(=S)N(c2ccccc2)N1 (stereo unspecified)	-1
99	COc1ccc(NC(=O)Cc2ccc(C)c(C)c2)cc1Cl	4
100	C/C(Cl)=C\C[N+](C)(C)CC(=O)OCCc1ccccc1	11

# Part of the list above in a different format.
[100] C/C(Cl)=C\C[N+](C)(C)CC(=O)OCCc1ccccc1
  Calb biofilm kill: 11

[96] CCOC(=O)C1(Cc2ccccc2C(F)(F)F)CCN(CCCn2cccn2)CC1
  Calb biofilm kill: 29

[99] COc1ccc(NC(=O)Cc2ccc(C)c(C)c2)cc1Cl
  Calb biofilm kill: 4

# A second format for part of the listing above.
[84] Cc1onc(-c2c(F)cccc2Cl)c1C(=O)NNC(=O)C1CCN(Cc2cccc(F)c2)CC1
  Calb biofilm kill: -5
[85] CCCOc1ccc(C2C(C(=O)/C=C/c3ccco3)=C(O)C(=O)N2CCN2CCOCC2)cc1OC (stereo unspecified)
  Calb biofilm kill: 16
[86] CS(=O)(=O)N1N=C(c2cccs2)CC1c1ccccc1 (stereo unspecified)
  Calb biofilm kill: 19
[87] Cc1nnc(N/N=C/C(C)c2ccccc2)[nH]c1=O (stereo unspecified)
  Calb biofilm kill: 21

# Remaining list, next part:
cpd	Structure	Calb biofilm kill
101	Cc1ccc(CNC(=O)C2CC(c3ccccc3C(F)(F)F)=NO2)cc1 (stereo unspecified)	11
102	CC1CC(C)(C)NC(=S)N1CC(=O)NCc1ccc(Cl)cc1 (stereo unspecified)	17
103	CCN(CC)C(=S)NC(=O)c1cccnc1	7
104	O=C1N(Cc2cccc(Cl)c2)C[C@@H]2C[C@@H](c3ccsc3)N3CCC[C@@]123	5
105	Cc1ccc2nsnc2c1NC(=O)CCc1ccccc1	5
106	O=C(CNC(=O)C1CCCCC1)OCn1nnc2ccccc2c1=O	6
107	O=C(NCc1cccs1)c1cnc(Cl)c(Cl)c1	13
108	COc1cc(/C=C(/NC(C)=O)C(=O)O)cc(Cl)c1OCc1ccc(Br)cc1	14
109	O=C(c1ccccc1F)N(NC(=O)C(O)(c1ccccc1)c1ccccc1)c1ccccc1	15
110	Cc1cccc(N=Nc2cn[nH]c2-c2ccco2)c1	16
111	C=CCn1c(=N)n(CC(=O)c2cccc([N+](=O)[O-])c2)c2ccccc21	3
112	Nc1nc(SCC(=O)N2CCCC2)[nH]c(=O)c1NC(=O)c1cccs1	24
113	O=S1(=O)CC(O)C(Nc2ccc(Cl)cc2)C1 (stereo unspecified)	-4
114	COc1ccc(-n2cnnc2SCC(=O)Nc2cc(C)on2)cc1	-2
115	COc1cc(NC(=O)COC(C)=O)cc(OC)c1OC	5
116	C/C=C\C(=O)Nc1cccc(C2=NOC3(C2)C[C@@H](C(N)=O)N(C(=O)C2(C)CC2)C3)c1 (stereo partly specified)	14
117	CC(C)c1ccc(/C=N/Nc2ccc(C(=O)O)cc2)cc1	18
118	CCOC(=O)c1sc(Nc2nc3cc4c(cc3s2)OCO4)cc1C	17
119	C=CCOC(=O)C1=C[C@H](c2cn(C(C)=O)c3ccccc23)C[C@H](OCc2ccc(CO)cc2)O1	19
120	CC(NC(=O)Cn1c(NCCO)nc2ccccc21)C1CC2CCC1C2 (stereo unspecified)	7

cpd	Structure	Calb biofilm kill
121	CC1(C)C[C@@H]2C[C@@](C)(CN2C(=O)c2ccccc2)C1	20
122	CCOc1ccc(CONS(=O)(=O)c2ccc(NC(C)=O)cc2)cc1Cl	8
123	Cc1cc(C)n(/N=C/c2cc([N+](=O)[O-])ccc2O)c(=O)c1	14
124	CCN(CC)S(=O)(=O)c1ccc(/C=C/C(=O)OCC(=O)Nc2ccc(C(N)=O)cc2)cc1	12
125	COc1cc(CCCN2C(=S)NC[C@@H]2Cc2ccccc2)cc(OC)c1OC	18
126	N#C/C(=C\c1cc2c(cc1Br)OCO2)C(=O)NCC1CCCO1 (stereo unspecified)	12
127	Cc1c(C#N)c(N)nc2c3c(sc12)NC(=O)CC3c1ccccc1 (stereo unspecified)	0
128	C=CC(=O)NCCCc1cc(C(C)(C)C)c(O)c(C(C)(C)C)c1	23
129	O=C(O)CCC(=O)NCCc1cccc(Cl)c1	9
130	Cc1ccc(C(=O)N2CCCC(c3ccccc3)=N2)cc1	27

# Bioassay records from PubChem.

# A portion of the library; rates above refer to the full screens.
